# Assay outcomes from PubChem BioAssay.
# AmpC inh no det – AmpC beta-lactamase inhibition, detergent-free assay; P00811; AmpC nitrocefin hydrolysis, absorbance 480 nm, no detergent; potencies from a single point are estimates; Potency, µM (series often up to 28.7 µM), inactives show at the highest dose activity change, negative = inhibition; actives 1.8% (n = 71,000); AID 585; active = falling curve, for most hits resting on a single point; inconclusive = weak or doubtful change; inactive = flat or rising curve; also: % of control where 0% means no effect; about half of the hits show no inhibition at the top dose; a quarter of the inactives give rising signals
# Target sequence (P00811 whole entry, looked up): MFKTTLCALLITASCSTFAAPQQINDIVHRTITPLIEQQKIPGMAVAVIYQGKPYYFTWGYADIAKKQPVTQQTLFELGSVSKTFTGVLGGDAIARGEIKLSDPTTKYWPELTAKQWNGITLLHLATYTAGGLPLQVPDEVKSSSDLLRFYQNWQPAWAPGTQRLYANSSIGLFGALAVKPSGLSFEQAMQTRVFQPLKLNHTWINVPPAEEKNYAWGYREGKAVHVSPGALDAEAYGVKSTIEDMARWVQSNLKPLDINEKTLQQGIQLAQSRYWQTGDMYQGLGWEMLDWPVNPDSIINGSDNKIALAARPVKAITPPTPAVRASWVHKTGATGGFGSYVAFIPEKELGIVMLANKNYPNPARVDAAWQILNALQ
#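 Enzyme, pH 7.0 phosphate. Compound titrations were pre-incubated with AmpC for 15 min at room temperature before nitrocefin (stock 800 uM) addition; product formation was recorded at 480 nm every 20 s for 4 min.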
# * marks the source's active call; other numbers are inactive results; & = joins results of further samples; [ ] = dose if it differs, or a comment. Potency is read from the fitted curve at half-maximal effect. Not all compounds are listed. The share of hits here may be higher or lower than overall.
SMILES,AmpC inh no det
O=C(CC1CCCCC1)NC1CCCC1,5.0%
CCOC(=O)c1c(C)c(C(=O)NCc2ccc3c(c2)OCO3)c(C)n1CC,16.4%
COc1ccc(S(=O)(=O)N2CCC(C(=O)NC3CC3)CC2)cc1Cl,21.9%
Cc1csc2nc(CCNS(=O)(=O)c3cccs3)cn12,2.0%
COC(=O)c1cc(COC(=O)c2ccc3ccccc3n2)oc1C,48.2%
CN(C)Cc1ccccc1-c1ccc2ncnc(NCc3cccs3)c2c1,42.0%
COc1ccc(C(=O)CSc2nn3c(=O)c(C(C)(C)C)nnc3s2)cc1,48.5%
CC(C)Sc1nc2c(c(=O)[nH]c(=O)n2C)n1Cc1ccc(Cl)cc1,16.8%
O=S(=O)(N1CCCCCC1)N1CCN(S(=O)(=O)N2CCOCC2)CC1,17.3%
Cc1csc2nc(CNS(=O)(=O)c3ccc4c(c3)OCCO4)cn12,-1.4%
COc1ccc(C[C@@](C)(N)C(=O)O)cc1OC,-4.8%[12.8 µM]
CC(=O)c1ccccc1OCCn1nnc(-c2ccc(C)cc2)n1,31.2%

# Next section; it opens with the three that closed the last part.
SMILES,AmpC inh no det
Cc1csc2nc(CNS(=O)(=O)c3ccc4c(c3)OCCO4)cn12,-1.4%
COc1ccc(C[C@@](C)(N)C(=O)O)cc1OC,-4.8%[12.8 µM]
CC(=O)c1ccccc1OCCn1nnc(-c2ccc(C)cc2)n1,31.2%
N=c1c(C(=O)NC2CCCC2)cc2c(=O)n3ccccc3nc2n1CCN1CCOCC1,5.9%
CC(=O)Nc1nnc(SCc2cccc(F)c2)s1,6.3%
COc1ccc(NC(=O)Nc2ccc3c(c2)N(C)C(=O)CS3)cc1OC,-4.9%
Cc1cnc(C(=O)OCC(=O)Nc2oc(-c3ccccc3)c(-c3ccccc3)c2C#N)cn1,108.5%
Cc1onc(-c2ccccc2Cl)c1C(=O)Nc1nnc(C(C)C)s1,26.5%
CCOc1ccc(-n2c(SCc3nc(-c4cccs4)no3)nnc2-c2ccncc2)cc1,97.1%
O=C(NCC(c1cccnc1)N1CCN(c2ccc(F)cc2)CC1)c1ccccc1 (centres undefined),34.4%
Cc1ccc(NC(=O)CSc2nnc(-c3ccccn3)n2C)cc1,12.0%
O=C(CCNS(=O)(=O)c1ccc(Cl)cc1)NCc1ccccn1,1.7%
O=C(CN1CCN(c2nc(-c3ccc(F)cc3)cs2)CC1)Nc1ccc2c(c1)OCO2,25.9%
Cc1ccc(C)c(S(=O)(=O)NC(CCC(N)=O)C(=O)O)c1 (centres undefined),2.0%
Cc1cc(-c2ccccc2)nc2[n+]1CCN2C,-3.2%
CCN(CC)C(=O)CSc1nc2ccccc2c(=O)n1OC,5.2%
O=C(CSc1nc2ccccc2o1)Nc1ccc(N2CCOCC2)cc1,9.5%
CCCn1nc(C(=O)NCc2ccccn2)c2ccccc2c1=O,-8.2%
O=C(c1ccc(-c2ccccc2)cc1)N1CCN(c2nc3ccccc3o2)CC1,3.98µM*[single pt active]
CC1(C(=O)NC2CCCCC2)CCC(=O)N1Cc1cccs1 (centres undefined),3.98µM*[single pt active]
CC1(C)Oc2ccc(C(=O)N3CCOCC3)cc2N(CC(=O)N2CCOCC2)C1=O,-6.5%
O=C(NCCO)c1cccc(S(=O)(=O)N2CCCCC2)c1,-6.2%
CCOC(=O)C1CCN(C(=O)CS(=O)Cc2nc(-c3ccc(C)cc3)oc2C)CC1 (centres undefined),107.2%
Cc1cccc(Nc2ncnc3nc[nH]c23)c1C,0.6%
O=C(N1CCOCC1)N(CCN1CCOCC1)Cc1cccc(Cl)c1,19.1%
CCn1c(SCC(=O)N2c3ccccc3Sc3ccccc32)nc2c1c(=O)n(C)c(=O)n2C,153.7%
O=C(CSc1ccc(-c2ccccc2)nn1)N1CCOCC1,-2.1%
O=C(CSc1nnc(-c2cccs2)o1)N1CCCc2ccccc21,5.3%
O=c1cc(-c2ccccc2)c2ccc(O)c(CN3CCCCC3)c2o1,20.7%
Cc1ccc(S(=O)(=O)O[C@H]2CN3CCC2CC3)cc1,9.3%[5.75 µM]
COc1ccc(C(CNC(=O)c2cc(=O)[nH]c3ccccc23)N2CCCC2)cc1 (centres undefined),-6.2%
CCOC(=O)C1=C(C)N(CCO)C(=O)NC1c1cccc(O)c1 (centres undefined),-5.0%
Nn1c(SCC(=O)Nc2ccccc2F)nc2ccccc2c1=O,4.2%
CC(=O)NC(CCS(C)(=O)=O)C(=O)Nc1ccccc1Cl (centres undefined),-6.5%
Cc1cc(NC(=O)CCc2ccc(S(=O)(=O)N3CCOCC3)cc2)n(-c2ccccc2)n1,23.8%
O=C(CN1CCN(Cc2ccccc2Cl)C1=O)NCC1CCCO1 (centres undefined),15.1%
O=C(Oc1ccccc1)N1CCC2(CCCN(c3cccc(-c4ccccc4)c3)C2)CC1,-2.2%
CC(C)NS(=O)(=O)c1ccc(CCC(=O)NCc2cccnc2)cc1,-3.0%
COc1cc(OC)cc(-c2nnc(SCC(=O)N3CCCCC3)o2)c1,44.8%
O=C(Nc1cccc(O)c1)c1ccc(Br)cc1,-10.0%
CC1Cc2ccccc2N1c1ncnc2nc[nH]c12 (centres undefined),-12.5%
COc1nc(C)ccc1-c1noc(-c2ccccn2)n1,22.3%
COc1ccccc1N1CCN(C(=O)CCCCn2c(=O)[nH]c3ccsc3c2=O)CC1,76.7%
COCCn1c(=O)c(-c2ccc(OC)cc2)nc2cnc(Nc3ccccc3)nc21,5.3%
COc1ccc(N(CC(=O)Nc2ccc(C)cn2)S(=O)(=O)c2c(C)nn(C)c2C)cc1,98.4%
OC[C@@H]1O[C@@H](n2cnc3c(NC4CCCC4)ncnc32)[C@@H](O)[C@H]1O,11.5%
CCOC(=O)c1[nH]c(C)c(C(=O)Nc2ccc(F)cc2)c1C,-8.9%
COc1ccc(CC(=O)Nc2nc3ccccc3s2)cc1S(=O)(=O)N1CCOCC1,27.8%
O=c1[nH]c2cccnc2n1Cc1ccco1,12.7%
COC(=O)NCC(c1cccnc1)N1CCOCC1 (centres undefined),-6.1%
COc1ccc(CNc2nc3c(c(=O)n(Cc4ccc(Cl)cc4)c(=O)n3C)n2C)cc1,45.5%
N#CC(C(=O)NC1CC1)c1nc2ccccc2nc1N1CCCC1 (centres undefined),21.9%
O=C(O)CCCSc1nc2ccccc2s1,-0.7%[5.75 µM]
Clc1ccc([C@H](Cn2ccnc2)OCc2c(Cl)cccc2Cl)c(Cl)c1,42.9%[12.8 µM]
C=CCN1C(=O)CSc2ccc(C(=O)NCc3ccco3)cc21,-2.3%
Cc1ccc([N+](=O)[O-])cc1,-13.3%
NCCC[C@@H](CC(=O)N[C@@H]1CCNC[C@H]1C(=O)N[C@H](CC(=O)N[C@@H](CCC(=O)O)CC(=O)O)Cc1ccccc1)NC(=O)C[C@H](Cc1ccccc1)NC(=O)[C@@H]1CNCC[C@H]1N,137.9%
CCCCn1nnc(NC(=O)c2cc3ccccc3o2)n1,-0.3%
CC(=O)NC(CCS(C)(=O)=O)C(=O)Nc1nccs1 (centres undefined),-8.0%
O=C(CCCC(=O)N(CC(=O)NC1CCCC1)Cc1ccccc1)Nc1ccccn1,15.1%
COc1ccc(Cn2nnnc2C(c2cc3ccc(OC)cc3[nH]c2=O)N2CCCCCC2)cc1 (centres undefined),24.8%
NC(=O)c1cnccn1,8.7%&9.1%
Nc1[nH]c(=O)ncc1F,0.4%[12.8 µM]

# Carrying on.
SMILES,AmpC inh no det
CCOc1cccc(-c2nnc3sc(COc4ccc(C)cc4)nn23)c1,16.2%
COc1ccccc1OCC(O)CN1C(=O)NC(C)(C)C1=O (centres undefined),11.3%
Cc1ccc(Nc2nc(N)nc(CSc3nnc(-c4ccncc4)o3)n2)cc1,15.8%
Cn1c(=O)oc2cc(S(=O)(=O)N3CCCC(C(=O)NCc4cccs4)C3)ccc21 (centres undefined),23.3%
CCS(=O)(=O)N1CCC(C(=O)NC2CCCCCCC2)CC1,4.9%
CCOC(=O)/C=C1\NC(=O)CS1,-1.2%
Cc1sc2nc(C3CC3)nc(SCC(=O)NCc3ccco3)c2c1C,29.7%
Cc1[nH]n(C(N)=S)c(=O)c1C(c1ccccc1)C(C#N)C#N (centres undefined),-23.1%
CCS(=O)(=O)NC(C)C(c1cccs1)N1CCN(C)CC1 (centres undefined),-2.5%
CCOC(=O)C1CCCN(C(=O)c2cnn3c(C(F)(F)F)cc(-c4ccccc4)nc23)C1 (centres undefined),93.6%
O=S(=O)(c1cnc[nH]1)N1CCCCCC1,-6.9%
COC(=O)c1ccc(-c2nc3ccc(C)cc3o2)cc1,2.7%
O=S(=O)(NCC1CCCO1)c1ccc(Cl)c(C(F)(F)F)c1 (centres undefined),3.8%
C=CCn1c(N)c(C(=O)NC2CCCCC2)sc1=S,-0.2%
O=C(NCC1CCCCC1)c1ccco1,5.0%
COC(=O)CSC1=NS(=O)(=O)c2ccccc21,-12.3%
Cc1nnc2sc(-c3ccncc3)nn12,0.4%
Cc1ccc2c(c1)N(CCCC(=O)NCCC1=CCCCC1)C(=O)CO2,87.7%
CCCn1c(SCC(=O)NCc2cccs2)nc2c1c(=O)n(C)c(=O)n2C,-1.7%
CCC(=O)N1CCc2cc(S(=O)(=O)NCCN3CCC(C)CC3)ccc21,-1.1%
COCC(=O)Nc1ccc(-c2cn3cccnc3n2)cc1,8.9%
Cc1ccc(N(C(C)C(=O)Nc2ccc(S(=O)(=O)N3CCOCC3)cc2)S(C)(=O)=O)cc1C (centres undefined),63.2%
COCc1cc(=O)[nH]c(/N=C(\N)Nc2ccc(C)cc2)n1,-9.0%
CCn1c(COc2cccc(C)c2)nnc1SCC(=O)Nc1cccc(C(=O)O)c1,-2.8%

# Some of the entries above in another layout.
Compound: COCC(=O)Nc1ccc(-c2cn3cccnc3n2)cc1
  AmpC inh no det = 8.9%
Compound: COCc1cc(=O)[nH]c(/N=C(\N)Nc2ccc(C)cc2)n1
  AmpC inh no det = -9.0%
Compound: Cc1nnc2sc(-c3ccncc3)nn12
  AmpC inh no det = 0.4%

# Next results follow:
SMILES,AmpC inh no det
O=C(Oc1ccccc1)c1ccc2nccnc2c1,1.2%
COc1ccc(NC(=O)c2oc3ccccc3c2NC(=O)C(C)(C)C)cc1,49.7%
Clc1cc(I)cc(Cl)c1NC1=NCCN1,-0.8%
O=C(CCC(=O)c1cccs1)OCc1nnc(-c2ccccc2)o1,5.0%
COC(=O)[C@H]1C[C@@H]1[C@H](NS(=O)(=O)c1ccc(-c2ccccc2)cc1)c1ccccc1,9.8%
COc1cc(-c2nnn(CC#N)n2)ccc1OCc1ccccc1,16.5%
Cc1ccc2c(c1)CC1(CN2C)C(=O)NC(=O)N(c2cccc(C)c2C)C1=O (centres undefined),2.8%
CCn1c(CSc2nnc(C)n2-c2ccccc2)nc2cc(S(=O)(=O)N(C)C)ccc21,59.9%
CCCS(=O)(=O)N1CCC(C(=O)NCCN2CCCC2)CC1,22.6%
Cc1cc(C(=O)CSc2nnc(-c3cccnc3)n2-c2ccccc2F)c(C)n1C,82.6%
COc1ccc(-n2c(=O)c(CCc3ccccc3)nc3cnc(N4CCNCC4)nc32)cc1,97.5%
CCCCCc1nc2c(=O)[nH]c3ccccc3c2o1,-8.1%

# Quoted at random: 4 entries already listed.
SMILES,AmpC inh no det
Clc1cc(I)cc(Cl)c1NC1=NCCN1,-0.8%
COc1cc(-c2nnn(CC#N)n2)ccc1OCc1ccccc1,16.5%
CCCCCc1nc2c(=O)[nH]c3ccccc3c2o1,-8.1%
COC(=O)[C@H]1C[C@@H]1[C@H](NS(=O)(=O)c1ccc(-c2ccccc2)cc1)c1ccccc1,9.8%

# Other results follow.
SMILES,AmpC inh no det
CCN(CC)S(=O)(=O)c1ccc2nc(NC(=O)c3cccs3)sc2c1,-19.6%
O=C(NCc1cccs1)C1CCCN(c2ncccn2)C1 (centres undefined),14.7%
COc1ccc(N2CCCn3c2nc2c3c(=O)n(CCCc3ccccc3)c(=O)n2C)cc1,2.0%
C#CCN1C(=O)C2C(C(=O)NC)C3C=CC2(O3)C1C(=O)NCc1ccc(OC)cc1 (centres undefined),-0.2%
CC(C(=O)Nc1ccc(C(=O)O)cc1)N1C(=O)c2ccccc2C1=O (centres undefined),-15.1%
COc1cccc(C(=O)Nc2c3c(nn2-c2cccc(C)c2C)CS(=O)(=O)C3)c1OC,66.5%
CCCn1c(-c2ccc(F)cc2)nc2c(N3CCC(N(C)C)C3)nc(C)nc21 (centres undefined),76.2%
COC(=O)CN1C(=O)C(O)(CC(=O)c2ccc(C)o2)c2ccccc21 (centres undefined),-1.1%
COc1ccc(OC)c(CN2CCCC(C(=O)N3CCCCC3)C2)c1 (centres undefined),0.8%
CC(C)COP(=O)(c1ccc(N(C)C)cc1)C(O)c1ccncc1 (centres undefined),30.1%
O=C1C=C(NCC2CCCO2)CC(c2ccccc2)C1 (centres undefined),-9.9%
C=CCn1c(SCC(=O)Nc2cc(C)c(Cl)cc2OC)nnc1-c1ccco1,90.2%
N#CCCN(CCC#N)C(=O)COc1ccc(Cl)cc1Cl,-0.3%
CC1CCCCC1NS(=O)(=O)c1ccc(S(=O)(=O)N2CCN(CCC#N)CC2)cc1 (centres undefined),67.6%
COc1ccc(C(=O)CSc2nnc(CNC(=O)c3ccc(OC)c(OC)c3)n2C)cc1,60.6%
O=C(NCCCN1CCCC1=O)NC12CC3CC(CC(C3)C1)C2,4.2%
Cc1cccc(-n2nnc(C(=O)Nc3ccc(F)cc3)c2N)c1,7.0%
C[C@H]1[C@@H](O)[C@@H](C)\C=C/C=C\C=C/C=C\C=C/C=C\C=C/[C@@H](O[C@H]2O[C@@H](C)[C@@H](O)[C@@H](N)[C@@H]2O)C[C@@H]2O[C@](O)(C[C@@H](O)C[C@@H](O)[C@@H](O)CC[C@@H](O)C[C@@H](O)CC(=O)O[C@H]1C)C[C@@H](O)[C@H]2C(=O)O (stereo in doubt),88.1%[12.8 µM]
